# Kir21 inh: inhibitors of mouse Kir2.1 inward-rectifier potassium channel. Inward rectifier potassium channel 2 (Mus musculus), P35561. 310,000 tested, 0.85% active. AID 1672, 2009. HEK293-Kir2.1, FluxOR thallium flux fluorescence; hits give low values. B-score at 10 µM;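 active means fluorescence ratio B-score at or below minus 3 SD of library scores, with starting-brightness B-score within 2 SD, cut at about -4.2 in these data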;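 further: channel flux triggered by added potassium and thallium sulfate stimulus; B-score of peak minus minimum fluorescence over baseline after thallium stimulus; more negative B-score means stronger Kir2.1 block with less thallium influx; some compounds called inactive have numbers as strong as hits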
# Target sequence (P35561 whole entry, looked up): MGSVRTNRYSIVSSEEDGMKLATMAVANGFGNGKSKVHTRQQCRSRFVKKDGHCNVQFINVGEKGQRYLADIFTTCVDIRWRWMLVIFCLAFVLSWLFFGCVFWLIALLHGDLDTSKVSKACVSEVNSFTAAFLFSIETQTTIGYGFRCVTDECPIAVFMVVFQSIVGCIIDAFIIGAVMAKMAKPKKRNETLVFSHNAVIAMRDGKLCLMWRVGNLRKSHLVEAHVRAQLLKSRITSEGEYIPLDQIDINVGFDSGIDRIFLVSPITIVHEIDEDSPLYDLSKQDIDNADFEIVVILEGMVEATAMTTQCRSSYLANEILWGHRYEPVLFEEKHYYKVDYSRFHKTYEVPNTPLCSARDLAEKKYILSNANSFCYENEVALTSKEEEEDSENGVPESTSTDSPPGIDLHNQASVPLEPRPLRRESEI
# * marks the source's active call; other numbers are inactive results. Only part of the results is shown, and most or all hits are left out here.
Kir21 inh,SMILES
-0.65,COc1ccc(-c2cn(Cc3ccc(C(=O)NCc4ccc(C)cc4)cc3)c(C(C)N)n2)cc1 (stereo unspecified)
1.3,Cc1c(C(=O)NCc2ccco2)oc2ccccc12
1.6,O=[N+]([O-])c1ccccc1NCCNc1ncc(C(F)(F)F)cc1Cl
1.3,CCOC(=O)c1c(NC(C)=O)no[n+]1[O-]
-0.4,CC(NC(=O)C1CCCCC1)C(=O)NC1=NCCS1 (stereo unspecified)
0.55,Cc1ccc(OCCC(=O)Nc2ccc(C)c(F)c2)cc1
0.9,COc1ccccc1/C=C/C=N/NC(=O)CC1C(=O)NN=C1C (stereo unspecified)
0.56,Cc1nnc(NC(=O)C2CCCN2S(=O)(=O)c2ccc(Cl)cc2)s1 (stereo unspecified)
0.02,COC(=O)[C@H](CC(C)C)NC(=O)Nc1ccc2c(c1)OCCO2
-0.83,CC1C2CC(C/C2=N/NC(=O)c2cccs2)C1(C)C (stereo unspecified)
0.05,Cc1nc(SCc2ccccc2C)n[nH]1
-1.9,C/C=C/C(=O)N1CC2(CC(c3cccc(NC(=O)COc4ccc(Cl)cc4)c3)=NO2)C[C@@H]1C(N)=O (stereo partly specified)
-1.5,C=CCn1c(=O)[nH]c2cc(C(=O)N3CC=C(c4ccccc4)CC3)ccc2c1=O
-1.1,CCOc1ccc(CCNC(=O)c2cc3ccccn3n2)cc1OCC
1,Cc1cc(=O)oc2cc(NC(=O)c3cccc(S(C)(=O)=O)c3)ccc12
0.03,CC(C)CN1C(=O)c2ccc(NC(=O)C3CC3)cc2C1=O
-1.6,Cc1ccccc1CNC(=O)c1ccc2ccccc2n1
-1.3,COC(=O)CNC(=O)c1c(C)cc(=O)oc1C
0.12,O=C(NNc1ccccc1[N+](=O)[O-])Nc1ccc(Cl)c(Cl)c1
0.49,Nn1c(COc2ccc(Cl)cc2)n[nH]c1=S
-0.29,O=C(CCCOc1ccc(Cl)cc1Cl)NNC(=O)C1CCC1
0.01,CC(=O)C1=C(O)C(=O)N(c2ccc(S(N)(=O)=O)cc2)C1c1ccccc1F (stereo unspecified)
-1.9,O=C(CSc1nc2ccccc2c(=O)n1CCC(=O)N1CCCCC1)NCc1ccccc1
0.58,CN1CCN(C(=O)/C(=C\c2cccc([N+](=O)[O-])c2)NC(=O)c2cccs2)CC1
-0.71,Cn1c2ccc(Cl)cc2c2nc3ccccc3nc21
0.16,CCOc1cccc(-c2c(C(=O)N/N=C/c3ccoc3)nnn2-c2nonc2N)c1
0.01,COc1ccc(C)cc1NC(=O)CSc1ccc(-c2ccccn2)nn1
-1.1,ClC1(Cl)CC1Cn1c(C2CC2)nc2ccccc21 (stereo unspecified)
-0.12,CCC(C(=O)Nc1ncn[nH]1)(C(F)(F)F)C(F)(F)F
1.6,Cc1ccc(CNS(=O)(=O)c2c(C)nc3scc(C)n3c2=O)cc1
-0.52,C=CCN1C(=O)/C(=C2/Sc3ccccc3N2CC)SC1=S
0.02,Cc1ccc(NC2CCCN(C(=O)c3cnsn3)C2)cc1C (stereo unspecified)
0.27,CCCCn1c(SCC2CCCO2)nc2cc(S(N)(=O)=O)ccc21 (stereo unspecified)
0,Cc1ccc(CN2CCNC2=O)cc1
-0.07,O=C(COC(=O)c1cc([N+](=O)[O-])ccc1NCc1ccccc1)NC1CCCc2ccccc21 (stereo unspecified)
0.64,CN1C(=O)C2(NC(=O)c3ccccc3N2C)c2ccccc21 (stereo unspecified)
-1.4,COc1ccc(NC(=S)N2CCCCCC2)cc1OC
0.83,O=C(CCCCCBr)N1CCC(CC2CC(c3ccc(Cl)cc3)=NO2)(C(=O)NCC2CCCCC2)CC1 (stereo unspecified)
-0.24,CC(/C=N/O)Cc1ccc2c(c1)OCO2 (stereo unspecified)
-0.3,CCCNC(=O)C1CNc2ccccc2O1 (stereo unspecified)
-1.1,Cc1ccc(C(=O)N/C(=C\c2cn(C)c3ccccc23)C(=O)OCCN(C)C)cc1
-0.4,COc1ccc(OC)c(NC(=O)C(=O)/C=C(\O)c2cc(OC)ccc2OC)c1
-0.47,COCCn1nnnc1C(c1ccc(C(F)(F)F)cc1)N1CCOCC1 (stereo unspecified)
0.11,CCN1CCN(c2sc(S(C)(=O)=O)nc2S(=O)(=O)c2ccc(C)cc2)CC1
-0.92,C1CCCN(CCCCN2CCCCCC2)CC1
0.02,Nc1nc(NCc2ccco2)nc(N2CCOCC2)c1[N+](=O)[O-]
0.62,Cc1ccc(S(=O)(=O)N(C)CC(=O)Nc2cccc(C)n2)cc1
0.71,CC1CCc2c(C(=O)NCCCN3CCOCC3)csc2C1 (stereo unspecified)

# 2 compounds drawn at random from the list so far:
Kir21 inh,SMILES
-0.4,COc1ccc(OC)c(NC(=O)C(=O)/C=C(\O)c2cc(OC)ccc2OC)c1
0.11,CCN1CCN(c2sc(S(C)(=O)=O)nc2S(=O)(=O)c2ccc(C)cc2)CC1

# (next part)
Kir21 inh,SMILES
-0.61,CC(=O)N(CC(=O)Nc1nn(-c2ccccc2)nc1C(N)=O)Cc1ccccc1
0.31,O=C(NNC(=O)c1csc(-c2cccnc2)n1)Nc1ccc(Cl)cc1
-0.69,O=C(COc1ccc(S(=O)(=O)NC2CCCCC2)cc1)NC1CCCC1
1.8,c1ccc(CC2CCN(c3nc4ccccc4n4nnnc34)CC2)cc1
0.24,COc1cccc(CNC(=O)COc2ccc(C(=O)c3ccccc3)cc2)c1
0.69,COc1cccc(NC(=S)N2CCC(N(C)CC3CCCO3)CC2)c1 (stereo unspecified)
-1.5,O=C(O)c1cc2ccccc2c2cc(Br)ccc12
0.78,COc1ccccc1C(=O)NCC(=O)OCC(=O)Nc1cccc(S(=O)(=O)N2CCCCCC2)c1
-0.06,COC(=O)C1CCN(C(=O)Nc2ccc(OC)cc2)CC1
0.01,CCOc1ccccc1NC(=O)c1cccc(N2C(=O)CCC2=O)c1
-1.1,O=C(/C=C\c1ccccc1)Nc1ccc(NC(=O)c2ccco2)cc1
-0.03,COc1cccc(NC(=O)COC(=O)c2ccco2)c1
0.34,C/C(=N\OCC(=O)N/N=C/c1ccccc1)c1cccs1
0.59,Cc1ccc(C)c(C(C)NC(=O)C2CCCC2)c1 (stereo unspecified)
0.02,COc1ccc(NC(C)=O)cc1NC(C)C(=O)Nc1ccc(F)cc1 (stereo unspecified)
0.21,COc1cccc(CCNc2ccc(N3C(=O)CC(C)C3=O)cc2[N+](=O)[O-])c1 (stereo unspecified)
1.4,CCOC(=O)N1CCN(C(=O)C2CCC(=O)N(CCc3ccccc3)C2)CC1 (stereo unspecified)
-0.53,COC(=O)c1cnn2c1C(=O)N(Cc1cccs1)CC2
0.11,CCOC(=O)c1c(C)n(C)c2cc(-c3ccc(F)cc3)c(O)cc12
1.3,C=CCn1c(O)c(C2=c3ccccc3=NC2=O)s/c1=N/c1nccs1
0.72,CCOC(=O)c1ccc(NC(=O)CSCCC(=O)O)cc1
1.6,COc1ccc(S(=O)(=O)Nc2ccc(Cl)cn2)cc1
-0.96,O=S(=O)(NCCc1csc(-c2cccnc2)n1)c1ccc(F)cc1
-0.41,COc1ccc(CCN(C)Cc2nc(Cc3ccc(OC)c(OC)c3)no2)cc1OC
0.28,O=C(c1ccccc1)N1CCCCCC1
-0.7,O=C(NC1CCCC1)C(NS(=O)(=O)c1ccc(Br)s1)c1ccccc1 (stereo unspecified)
0.11,CC(=O)N1CCOc2ccc(S(=O)(=O)NCCc3ccc(Cl)cc3)cc21
-0.08,O=C(CN1CCc2ccccc2C1)Nc1ccc(OC(F)(F)F)cc1
0.73,Cc1ccc(NC(=O)CN2C(=O)COc3ccc(S(=O)(=O)N4CCCC4)cc32)c(C)c1
0.1,O=C(CSc1nnc(-c2ccco2)n1CC1CCCO1)N1CCCCC1 (stereo unspecified)
0.92,Cc1nn(-c2ccccc2)c(Cl)c1C(=O)OC(C)C(=O)NC(=O)NC1CCCCC1 (stereo unspecified)
-0.23,C=CCOc1ccc(NC(=O)C2CC(=O)N(C(C)C)C2)cc1 (stereo unspecified)
0.83,Cn1c(NC(=O)c2cccc(Cn3cc(Cl)cn3)c2)nc2ccccc21
1.3,CCn1c(CC(=O)Nc2ccccc2Cl)nnc1SCC(=O)NC1CCCC1
0.26,CCCCn1c(SCC2CCCCO2)nc2cc(S(N)(=O)=O)ccc21 (stereo unspecified)
1.4,CC(=O)c1nn(-c2cccc(Br)c2)cc1C(=O)c1ccco1
1.7,Cc1nc(CN2CCCC2=NC#N)n(-c2ccccc2)n1
0.49,CC1(c2ccc3ccccc3c2)NC(=O)N(CC(=O)N2CCC(C(N)=O)CC2)C1=O (stereo unspecified)
-2.5,Cc1cccc(-c2nc(CN3CCN(C(=O)C4CCCO4)CC3)cs2)c1 (stereo unspecified)
1.8,COc1cc(/C=C/C(=O)O)cc(S(=O)(=O)N2CCc3ccccc32)c1OC

# Arranged by value in Kir21 inh (low to high): four from the list above
Kir21 inh,SMILES
0.26,CCCCn1c(SCC2CCCCO2)nc2cc(S(N)(=O)=O)ccc21 (stereo unspecified)
1.3,CCn1c(CC(=O)Nc2ccccc2Cl)nnc1SCC(=O)NC1CCCC1
1.4,CC(=O)c1nn(-c2cccc(Br)c2)cc1C(=O)c1ccco1
1.7,Cc1nc(CN2CCCC2=NC#N)n(-c2ccccc2)n1

# Carrying on.
Kir21 inh,SMILES
-0.71,COc1ccccc1Cn1cccc1C=O
0.11,O=C(O)CCCn1cc(NC(=O)c2cccc(F)c2)cn1
0.23,O=C1C2CCCN2C(c2cccs2)N1c1ccc(Cl)cc1 (stereo unspecified)
2,COC(=O)c1cn(C(=O)c2ccc(C)cc2)c2ccccc12
-1.5,O=C(CCCN1C(=O)/C(=C/c2ccccc2)SC1=S)Nc1ccc(C(=O)O)c(O)c1
-2.7,Cc1nn(C)c(Oc2ccccc2)c1CCNS(=O)(=O)c1ccc(Cl)cc1
-1.1,O=C(NCCn1ccc2ccccc21)c1cccc([N+](=O)[O-])c1
-1.6,C=CCOC(=O)C1=C(C)Nc2ncnn2C1c1cccs1 (stereo unspecified)
-1.1,O=C(C1=C[C@H](c2ccc(Br)cc2)C[C@H](OCc2ccc(CO)cc2)O1)N1CCOCC1
0.73,COC(=O)c1ccc(Cn2nc(-c3cc(C)ccc3C)ccc2=O)cc1
0.29,Cc1cc(C)nc(OC(C(=O)O)C(OCC(C)C)(c2ccccc2)c2ccccc2)n1 (stereo unspecified)
1.6,COC(=O)C1(c2ccccc2)NC(c2cccs2)C2C(=O)N(c3ccccc3)C(=O)C21 (stereo unspecified)
0.93,Cc1ccc(Oc2c(C)nc(-c3ccccc3)[nH]c2=O)cc1
-1.1,CCOC(=O)c1ccc(NC(=O)CNC(=O)C23CC4CC(CC(C4)C2)C3)cc1
1.3,O=C(C1CCCN(Cc2ccccc2F)C1)N1CCCC1 (stereo unspecified)
1.6,O=C(CNC(=O)c1ccccc1F)c1ccccc1
0.08,Cc1ccc(C(=O)NCCc2nc3ccccc3[nH]2)cc1[N+](=O)[O-]
-1.4,Nc1nc(SCC(=O)Nc2ccc(Cl)c(S(=O)(=O)N3CCOCC3)c2)n[nH]1
2.2,Cn1cccc1/C=N/NC(=O)c1ccc[n+]([O-])c1
0.74,CSCC[C@H](NC(=O)N1CCn2c1nc1ccccc12)C(=O)NCc1ccco1
-1,O=C1CC(N2CCN(C/C=C/c3ccccc3)CC2)C(=O)N1Cc1ccc(N2CCCC2=O)cc1 (stereo unspecified)
-0.76,COc1ccc(Cl)cc1C(=O)NNC(=O)C1COc2ccccc2O1 (stereo unspecified)
-0.22,N#Cc1nc(-c2ccco2)oc1NCCCn1ccnc1
1,CC(NC(=O)CSc1nnc(CC(=O)Nc2ccc(Cl)c(Cl)c2)n1C)c1ccccc1 (stereo unspecified)

# Of the compounds above, these contain a nitro group on carbon:
Kir21 inh,SMILES
1.6,O=[N+]([O-])c1ccccc1NCCNc1ncc(C(F)(F)F)cc1Cl
0.12,O=C(NNc1ccccc1[N+](=O)[O-])Nc1ccc(Cl)c(Cl)c1
0.58,CN1CCN(C(=O)/C(=C\c2cccc([N+](=O)[O-])c2)NC(=O)c2cccs2)CC1
-0.07,O=C(COC(=O)c1cc([N+](=O)[O-])ccc1NCc1ccccc1)NC1CCCc2ccccc21 (stereo unspecified)
0.02,Nc1nc(NCc2ccco2)nc(N2CCOCC2)c1[N+](=O)[O-]
0.21,COc1cccc(CCNc2ccc(N3C(=O)CC(C)C3=O)cc2[N+](=O)[O-])c1 (stereo unspecified)
-1.1,O=C(NCCn1ccc2ccccc21)c1cccc([N+](=O)[O-])c1
0.08,Cc1ccc(C(=O)NCCc2nc3ccccc3[nH]2)cc1[N+](=O)[O-]

# Next results:
Kir21 inh,SMILES
1.2,COc1ccc(C(=O)Nc2cc(-c3ccc(C)cc3)no2)cc1
0.03,CC(=O)Nc1ccc(S(=O)(=O)Nc2cccc(-c3csc(C)n3)c2)cc1
-0.03,C=CCN(C(=O)CCC(=O)Nc1cc(C)on1)C(C(=O)NC1CCCC1)c1ccc(OC)cc1OC (stereo unspecified)
0.73,Brc1ccc(OCc2nc(-c3ccccn3)n[nH]2)cc1
0.1,COC(=O)[C@@H]1C[C@H]2CC[C@H](O)C[C@H]2N1Cc1ccc(C(C)(C)C)cc1
-0.75,CC1=NN2C(=N)/C(=C\c3cc(C)n(-c4ccc(C)cc4)c3C)C(=O)N=C2S1
3,Cc1cc(C)c2sc(NC(=O)CN3C(=O)CCC3=O)nc2c1
0.43,CCc1cc(=O)oc2cc3occ(C)c3cc12
-1.4,CC(C)=CC(=O)OCC(=O)Nc1nc(C)c(Cl)cc1Cl
-0.72,O=C(O)Cn1nc2c3c(cccc3c1=O)-c1ccccc1-2
-0.66,CC1CC(NC(=O)N(C)C)N(C)C(=O)N1 (stereo unspecified)
-0.01,Cc1nnc(SCC(=O)N/N=C/c2cn(-c3ccccc3)nc2-c2ccccc2)n1-c1ccccc1
-2.2,O=C1NC(Nc2nccs2)(C(F)(F)F)C(=O)N1CCc1ccccc1 (stereo unspecified)
0.09,COC(=O)c1ccc2c(c1)S(=O)(=O)NC(=NCc1ccco1)S2
-0.82,CCOC(=O)C1C(=O)OC(C)(C)C1C(C)C(=O)c1ccc(C)cc1C (stereo unspecified)

# Assay outcomes from PubChem BioAssay.
